# Ecoli growth: inhibitors of Escherichia coli growth; 0.21% of 330,000 active; AID 1053175; OD600 absorbance (concentration not given with the values); OD600, 23 h; active compounds read low;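 active = OD600 absorbance below the run mean of sample wells minus 3.6 SD, in any replicate, cut at about 0.56 in these data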;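 also: stock transfer was 300 nL into about 60 µL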
# Beta2AR agonist: activates human beta-2 adrenergic receptor causing internalization. Am2.2-beta2AR cells, FAP receptor internalization, flow cytometry; reference of the scale not given here. response, % (concentration not given with the values). 0.43% of 340,000 active. P07550. AID 504454;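 active = response above a set limit, near 3 SD of response in nonfluorescent compounds, cut at about 42% in these data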;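 also: stock transfer was 100 nL into about 11 µL; a reference agonist was the positive control; negative values mostly stem from fluorescent compounds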
# Target sequence (P07550 whole entry, looked up): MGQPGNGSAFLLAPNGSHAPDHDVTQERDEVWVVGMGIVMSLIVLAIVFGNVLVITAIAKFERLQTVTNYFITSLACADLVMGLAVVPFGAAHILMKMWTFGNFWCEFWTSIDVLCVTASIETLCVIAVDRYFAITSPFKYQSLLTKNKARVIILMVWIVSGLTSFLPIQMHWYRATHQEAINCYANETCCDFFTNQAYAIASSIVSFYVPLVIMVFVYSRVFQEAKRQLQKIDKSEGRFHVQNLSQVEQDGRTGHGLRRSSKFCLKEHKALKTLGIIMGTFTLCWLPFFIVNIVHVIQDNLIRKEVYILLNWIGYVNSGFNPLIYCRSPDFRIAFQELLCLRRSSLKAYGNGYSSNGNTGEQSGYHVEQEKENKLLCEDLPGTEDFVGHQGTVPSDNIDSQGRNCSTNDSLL
# UCH37 inh: inhibitors of human deubiquitinating enzyme UCH37; 0.33% of 330,000 active; purified proteasome/UCH37, Ub-AMC cleavage fluorescence; inhibition, % (concentration not given with the values); Q9Y5K5;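 active = mean of two replicates above 20%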;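 also: 0% = compound-free wells with enzyme and 100% = wells lacking proteasome; stock transfer was 100 nL into about 20 µL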
#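 system = Proteasome-associated human UCH37 deubiquitinase | amount = 0.15 nM proteasome as dispensed | medium = pH 7.4 Tris-HCl (50 mM) with ovalbumin, ATP-MgCl2, DTT | incubation = 30 min preincubation with enzyme, 25 min cleavage at room temperature | detection = AMC fluorescence 355/460 nm | read-out basis = percent inhibition | controls = no-proteasome and no-compound wells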
# LANA-H2B inh: blocks KSHV LANA binding to histone H2A/H2B; Q9QR71; cell-free LANA-H2A/H2B peptide, fluorescence polarization; inhibition, % (concentration not given with the values); 0.6% of 320,000 active; in the data active = inhibition mostly above about 10%, no sharp cut-off; inactive = mostly below about 6.7%;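 also: stock transfer was 7.5 nL into about 10 µL; 0% = median of vehicle wells and 100% = median of positive control wells; one replicate is shown; the record names a cut of 25% in any replicate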
# HNF4A DNA FP: change in binding of human HNF4 alpha to DNA; activity change, % at 10 µM; P41235; HNF4a-FITC DNA binding, fluorescence polarization, 1 h; 0.3% of 360,000 active; in the data active = activity change above about 30%, passing the limit was not always enough;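 also: controls were the assay level and a saturating level of protein; the project sought stronger binding though the title names inhibitors; some compounds called inactive have numbers as strong as hits; positive values seem to mean higher polarization but the record does not say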
# Target sequence (P41235 whole entry, looked up): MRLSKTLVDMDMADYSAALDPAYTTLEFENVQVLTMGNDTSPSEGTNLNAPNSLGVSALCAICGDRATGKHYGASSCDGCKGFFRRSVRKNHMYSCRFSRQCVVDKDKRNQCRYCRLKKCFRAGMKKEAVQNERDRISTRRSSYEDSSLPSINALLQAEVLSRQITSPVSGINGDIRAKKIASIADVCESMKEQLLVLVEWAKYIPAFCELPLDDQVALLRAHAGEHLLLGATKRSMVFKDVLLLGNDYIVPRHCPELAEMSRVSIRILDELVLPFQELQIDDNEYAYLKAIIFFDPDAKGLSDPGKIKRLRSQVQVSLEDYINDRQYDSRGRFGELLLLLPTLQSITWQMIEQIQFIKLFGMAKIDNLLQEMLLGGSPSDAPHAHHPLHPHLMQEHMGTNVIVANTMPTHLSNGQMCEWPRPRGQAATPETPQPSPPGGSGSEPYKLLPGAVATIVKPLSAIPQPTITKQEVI
# Vif A3G: inhibitors of Vif binding to APOBEC3G peptide, primary screen, biochemical, TR-FRET, GST-Vif 1-94, biotin-A3G peptide, dose response retest (AID 1117319); TR-FRET GST-Vif / biotin-A3G peptide binding; higher % means a stronger effect; test concentration not given here; strong numbers were not always called active; inhibition, %, or IC50 in µM where a hit was titrated; 0.57% of 260,000 active;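 active = above the screen mean plus three standard deviations and confirmed in dose response; inconclusive = results disagree or hit not tested in dose response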;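 also: Vif residues 1-94 fused to GST binding biotinylated APOBEC3G peptide 110-148; 0% = full assay without inhibitor and 100% = GST in place of GST-Vif; retest series ran down from 100 µM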
# Bfl-1 A1 inh: inhibitors of the anti-apoptotic protein A1, read as caspase activation; MEF A1-2A-BIM cells, Caspase-Glo 3/7 luminescence, 3 h; percent of clofoctol response, vehicle zero; caspase activation, % (test concentration not listed); 0.066% of 330,000 active;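 active = over half of replicate activation scores above 10%, or exactly half above 10 with the replicate mean above 10; inconclusive = replicate mean below 10 yet half the replicates above 10; inactive = over half of replicates below 10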;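 also: wells of about 30 µL received 50 nL stock; many hits fall short of the cut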
# An asterisk follows results filed as active; ? = inconclusive; / = not tested or not shown.
SMILES,Ecoli growth,Beta2AR agonist,UCH37 inh,LANA-H2B inh,HNF4A DNA FP,Vif A3G,Bfl-1 A1 inh
O=C(Nc1ccccc1)c1cccc(S(=O)(=O)N2CCCCC2)c1,0.72,-5,5.1,-3.2,1.8,-2%,-0.7
Oc1[nH]c2ccccc2c1C1=NCCCC1,0.74,0,-1.5,21*,1.0,6%,0.3
Cc1ccc(NC(=O)/C(C#N)=C/c2cn(CC(=O)NCc3ccco3)c3ccccc23)cc1C,0.73,-7,-58,/,27,/,?
CC(=O)/C(C[N+]1(C)CCCCC1)=N\O,/,0,/,4.5,-0.7,8%,0.7
OC(c1ccccn1)(c1ccccn1)c1ccccn1,0.66,1,0.6,9.1,-1.0,/,-1.0
COc1ccc(C2(C)NC(=O)N(Cc3cc(Cl)cc4c3OCOC4)C2=O)cc1OC (stereo not drawn),0.74,-3,0.5,-1.9,-3.2,-1%,0.4
CCOC(=O)c1sc(NC(=O)CC)nc1C,0.68,-33,0.9,1.4,0.5,-9%,-0.6
Oc1ccc(Oc2ccc3c(C(F)(F)F)cc(C(F)(F)F)nc3n2)cc1,0.71,-32,4.2,-2.3,-5.0,-4%,0.6
Cc1ccc(NC(=O)Cc2ccccc2)c(C)c1,0.66,/,1.7,-4.1,/,-8%,-0.1
O=C(Nc1ccc(S(=O)(=O)N2CCOCC2)cc1)c1ccccc1Br,0.68,4,1.5,-1.1,1.1,0%,0.2
C/C(=N\NC(=O)c1nn(C)c(C)c1Br)c1ccc(NC(=O)C2CCCC2)cc1,/,-7,/,5.2,-4.7,5%,-0.8
CC1=C(C(=O)Nc2ccccc2)C(c2cccnc2)n2nc(-c3cccnc3)nc2N1 (stereo not drawn),0.65,-9,5.3,-2.1,0.1,-3%,1.3
CCCCn1c(N)c(N(CC(C)C)C(=O)CC2CCCC2)c(=O)[nH]c1=O,0.65,-2,3.8,-1.6,0.1,6%,0.0
COc1cc2c(cc1OC)C(c1ccccc1N)=NCC2,0.66,17,1.8,2.9,-1.0,1%,0.5
COC(=O)CCC(=O)OC1(C)C(=O)C2=CN(C3CCCC3)C(c3ccc(OC)cc3)=CC2=C(Br)C1=O (stereo not drawn),/,-2,2.4,-0.9,-1.4,/,-1.0
CCCCc1ccc(NC(=S)NCc2cccnc2)cc1,0.61,-16,-1.4,-43,-5.1,-7%,0.7
CC(=O)NC(Cc1ccc(C(C)C)cc1)C(=O)NC1CCN(C(=O)c2cccc(C)c2)CC1 (stereo not drawn),0.65,1,1.1,-0.7,-0.2,0%,-0.8
Cc1cc(=O)c(C(=O)O)nn1-c1ccccc1C(F)(F)F,0.71,4,3.3,0.0,1.0,/,0.4
O=C(NNS(=O)(=O)c1ccc(Cl)cc1Cl)c1cc2ncc(C(F)(F)F)cc2s1,0.68,-1,5.3,2.3,-2.1,12%,-0.4
C/C(CCc1ccco1)=N/NC(=O)CCC(=O)Nc1cccc(Cl)c1,/,-9,/,2.5,5.3,22%,-0.1

# LANA-H2B inh, hit marks shown above
smiles,Ecoli growth,Beta2AR agonist,UCH37 inh,LANA-H2B inh,HNF4A DNA FP,Vif A3G
Oc1[nH]c2ccccc2c1C1=NCCCC1,0.74,0,-1.5,21*,1.0,6%

# Next part
SMILES,Ecoli growth,Beta2AR agonist,UCH37 inh,LANA-H2B inh,HNF4A DNA FP,Vif A3G,Bfl-1 A1 inh
CN(C)S(=O)(=O)c1cccc(NC(=O)CN2C(=O)C3C4C=CC(C4)C3C2=O)c1 (stereo not drawn),0.69,2,0.2,0.3,-3.6,9%,0.1
COc1ccc(/C=N/NC(=O)c2cccnc2)c2ccccc12,/,19,/,3.9,0.8,-13%,1.0
CCOC(=O)C1CCCCN1Cc1cc(OC)ccc1OC (stereo not drawn),0.72,-3,2.3,-7.6,-5.6,-2%,0.0
CC1(C)N=C(N)N=C(N)N1c1ccc(C(=O)O)cc1,0.64,/,-1.0,4.5,/,9%,0.5
COc1ccc(OCC(=O)NC(=S)Nc2ccc(S(=O)(=O)Nc3cc(OC)nc(OC)n3)cc2)cc1,0.68,4,5.3,-2.3,-2.8,18%,-0.2
CC(=O)N(CN1C(=O)c2ccc([N+](=O)[O-])cc2C1=O)c1ccc(F)cc1,0.69,-5,4.8,3.3,-3.0,32%,-0.3
COc1ccccc1CN1CC(C(=O)NCCCc2ccc(F)cc2)CCC1=O (stereo not drawn),0.63,-3,1.8,4.8,0.3,/,0.2
O=S(c1ccc2ccccc2c1)c1cnns1 (stereo not drawn),0.68,-7,2.0,0.1,-2.9,?,-0.2
Cc1cccc(-n2nnnc2SCC(=O)c2cc(C)n(Cc3ccco3)c2C)c1,0.71,-2,5.7,-12,-3.1,33%,-1.2
CC(NC(=O)c1cc2c(=O)n(C)c3ccccc3c2n1C)c1ccc2c(c1)OCCO2 (stereo not drawn),0.75,2,-0.2,-0.4,-1.6,-11%,0.4
COc1ccc(CN2CCN(C(C)C(=O)NC(C)c3ccc(F)cc3)CC2)cc1F (stereo not drawn),0.7,-1,2.1,1.6,0.6,/,0.3
O=C(NCCCc1ccccn1)C1CCC(=O)N(Cc2cccc(F)c2)C1 (stereo not drawn),0.73,-3,-0.1,-1.6,0.9,-9%,0.2
CC(=O)c1ccc(S(=O)(=O)N2CCN(C(=O)C3CCCC3)CC2)cc1,0.67,-16,1.2,-1.3,-3.5,/,-0.7
CCOC(=O)c1cccc(S(=O)(=O)N2CCOCC2)c1,0.72,1,3.0,3.6,-1.4,?,0.3
COc1ccc(C(=O)Nc2ccc(S(=O)(=O)Nc3ncccn3)cc2)cc1OC,0.7,7,0.9,-4.4,-4.3,0%,0.2
COc1ccc(C(=O)NC(=S)Nc2ccc(N3CCCC3)cc2)cc1,0.72,-2,2.6,5.1,1.7,/,0.0
COc1ccc(CCNC(=O)CCCCC(=O)NCCc2ccc(OC)c(OC)c2)cc1OC,0.64,3,2.7,0.7,-2.1,/,1.6
COCCNC(=O)Cn1c(=O)n(CCCCCC(=O)Nc2ccccc2)c(=O)c2sccc21,0.64,-2,1.6,3.0,1.0,/,1.2
COC(=O)c1cccc(Nc2ncnc3ccc(C)cc23)c1,0.66,0,-31,-0.3,3.3,-17%,0.7
CN(C)c1cc(-c2ccc(C#N)cc2)oc(=O)c1Cl,0.62,7,-28,-0.9,3.6,12%,0.9

# Structures from the list above with an NH in an aromatic ring, in the order listed:
SMILES,Ecoli growth,Beta2AR agonist,UCH37 inh,LANA-H2B inh,HNF4A DNA FP,Vif A3G,Bfl-1 A1 inh
Oc1[nH]c2ccccc2c1C1=NCCCC1,0.74,0,-1.5,21*,1.0,6%,0.3
CCCCn1c(N)c(N(CC(C)C)C(=O)CC2CCCC2)c(=O)[nH]c1=O,0.65,-2,3.8,-1.6,0.1,6%,0.0

# Additional entries.
SMILES,Ecoli growth,Beta2AR agonist,UCH37 inh,LANA-H2B inh,HNF4A DNA FP,Vif A3G,Bfl-1 A1 inh
O=C(O)c1cccc(S(=O)(=O)Nc2cccc(S(=O)(=O)Nc3ccc(Br)cc3)c2)c1,0.67,7,5.3,/,-2.0,-5%,/
CCOc1ccc2[nH]c3c(=O)n(CCc4ccc(OC)cc4)cnc3c2c1,0.71,0,-33,2.5,-1.1,3%,-0.2
COc1ccc(-c2cc(=O)oc3cc(OC(C)C(=O)NCC4CCC(C(=O)O)CC4)ccc23)cc1 (stereo not drawn),0.68,3,-12,4.1,3.9,/,0.7
CC(C)CCC(CC(C)O)c1n[nH]c(=S)n1-c1ccccc1 (stereo not drawn),0.66,-1,3.2,-8.3,1.5,/,-0.5
CCCCn1c(=N)n(CC(=O)C(C)(C)C)c2ccccc21,0.69,-3,2.6,-6.0,0.6,3%,-0.1
CC(C)NC(=O)Cn1nc(C(F)(F)F)c2c1CCC2,0.63,-2,4.7,-15,-5.8,10%,-0.5
O=[N+]([O-])c1ccc(N2CCN(CCO)CC2)cc1NCc1ccco1,0.69,0,11,2.5,-1.7,-3%,-0.1
Cc1cccc(N(Cc2ccccc2)C(=O)c2cc(S(=O)(=O)N3CCOCC3)ccc2Cl)c1,0.7,18,3.8,-1.3,-1.7,-1%,-0.3
C(=N\N1CCN(Cc2cccc3ccccc23)CC1)/c1cccs1,/,7,/,1.3,-2.3,-1%,1.2
CC(=O)Nc1ccc(NC(=O)C(=O)N/N=C/c2cccnc2)cc1,/,1,/,-1.0,1.4,-2%,1.1
CCN(Cc1ccccc1)c1ccc(/C=C(\C#N)c2ccccn2)cc1,/,9,1.3,7.7,25,/,-6.1
O=C(C1CCN(Cc2ccc(Cl)cc2)CC1)N1CCN(C(c2ccccc2)c2ccccc2)CC1,0.69,30,5.2,-1.4,-2.4,22%,0.7
Cc1ccc(NC(=O)NNc2cccc(Cl)n2)cc1,0.67,1,-0.4,0.1,2.0,-1%,1.5
C=CCn1c(COc2ccc(F)cc2)nnc1SCC(=O)Nc1cccc(S(N)(=O)=O)c1,0.69,2,0.5,2.7,2.1,?,-0.2
Cc1ccc(-c2noc(CSc3nc(N)cc(N)n3)n2)cc1,0.6,5,2.4,-1.8,2.8,-4%,-1.1
CC(=O)OCCc1c2ccccc2c(CCCN(C)C)c2ccccc12,0.7,-35,-478,-4.1,132*,/,-0.7
C[C@H](CO)N1C[C@H](C)[C@H](CN(C)Cc2ccccc2)Oc2ccc(NC(=O)Nc3ccc(F)cc3)cc2C1=O,/,5,-2.3,-6.2,2.8,/,-0.1
CCN(CC(=O)Nc1cccc(S(=O)(=O)N(C)c2ccccc2)c1)Cc1ccccc1,0.72,-4,3.3,-1.0,-2.1,10%,0.5
Cc1ccc(-n2nc(C)c3c2OC(N)=C(C#N)C3c2ccccc2F)cc1 (stereo not drawn),0.69,4,1.8,-0.3,2.6,7%,0.5
COc1cccc(C(=O)NNC(=O)C(=O)Nc2ccc(OC)cc2OC)c1,0.71,3,4.7,0.0,2.6,/,-0.4
Cc1cc(NC(=O)C2C3C(=O)N(c4cccnc4)C(C(=O)NC(C)(C)C)C34C=CC2(C)O4)no1 (stereo not drawn),0.68,-3,1.1,-2.2,-3.0,-1%,0.2
Cc1ccc(N(C(=O)Cn2nnc(-c3cccs3)n2)C(C(=O)NC2CCCC2)c2ccncc2)cc1 (stereo not drawn),0.73,16,4.1,-0.9,9.0,-7%,0.4
COc1ccc(CNC(=O)N[C@@H](CC(C)C)C(=O)O)cc1OC,0.7,2,3.2,-2.7,1.8,-2%,0.7
O=c1nc2n(c3ncccc13)CCCCC2,0.7,4,4.7,5.8,-1.3,/,0.3
O=C(Nc1c2c(nn1-c1ccccc1)CS(=O)(=O)C2)c1cccs1,0.66,4,-0.3,-0.5,0.5,/,-0.1
Cc1ccc2nc(-c3ccc(SCC(=O)Nc4ccc5c(c4)OCCO5)nc3)[nH]c2c1,0.63,14,-23,4.2,4.0,-28%,-6.9
Nn1c(SCC(=O)Nc2ccccc2F)nc2ccccc2c1=O,0.71,-2,1.2,-2.7,-0.2,-2%,-1.0
Cn1c(=O)c(C(=O)CSc2nncs2)c(N)n(Cc2ccccc2)c1=O,0.7,1,0.8,-1.0,2.1,6%,-0.5
Oc1c(C(c2ccccc2)N2CCOCC2)ccc2ccccc12 (stereo not drawn),0.63,12,2.1,/,-1.4,-5%,/
O=S(=O)(c1ccccc1)C1CC1(c1ccccc1)c1ccccc1 (stereo not drawn),/,-2,/,/,-4.1,0%,/
CCOC(=O)c1ccc(Nc2nnc3nc(C)cc(C)n23)cc1,0.66,1,3.1,5.4,-1.3,-6%,0.0
CN(C)/C=C1/NC(=S)NC1=O,0.73,2,27*,-2.6,1.1,/,-0.5
COCCN(CCOC)c1nc(-c2ccccc2)nc2ccccc12,0.67,3,0.5,0.7,0.3,-4%,1.2

# Source: PubChem
